Source: PubChem BioAssay
Sfp inh: inhibitors of Bacillus subtilis Sfp phosphopantetheinyl transferase; Biochemical Sfp PPTase activity, qHTS; 3.5% of 310,000 active; Potency, µM, for inactives: max response, negative = inhibition, actives largely listed as inhibitors; active means well fitted inhibition curve with a large enough effect; inconclusive means small, poorly fitted or top-dose-only effect, or another doubt; inactive means no such curve, though single readings can be large or run the other way;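 further: the enzyme is Sfp with the accession as filed and its product quenches rhodamine fluorescence; potency means the concentration at half of the fitted maximal effect; 0% = enzyme reaction without inhibitor and -100% = no enzyme wells; top concentration of the series not given in the record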
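Fluorescence-quenching assay: 15 nM Sfp-PPTase preincubated 15 min at room temperature with compound, then 5 uM rhodamine-CoA and 12.5 uM BHQ-2-labelled YbbR peptide added. Fluorescence (ex 525/em 598 nm) read at start and after 30 min; difference gives rate.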
PINK1 modulator: modulators of PINK1 expression. PINK1 immunofluorescence, high-content cytometry, 24 h. Potency, µM (doses to about 76.6 µM), for the others: at the top dose activation (PINK1 increase), actives largely listed as activators. 0.2% of 410,000 active; active = well fitted activation curve with a large enough effect; inconclusive = small, poorly fitted or top-dose-only effect; inactive = flat fitted curve, though single readings scatter; cell line not stated here;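 further: potency means the concentration at half of the fitted maximal effect; % of control where 0% means no effect; nearly all actives have a fitted effect of over 65% in size; a mitochondrial uncoupler was the plate control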
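Measures PINK1 amount and localization on or inside mitochondria by immunofluorescence. Stable cells get compounds at 5 concentrations for 24 hours before fixation and staining; CCCP controls included.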
Six1-Eya2 blk: inhibitors of human Six1/Eya2 interaction; 0.56% of 360,000 active; activity change, % (concentration not given with the values); Q15475+O00167; AlphaScreen GST-Six1/His-Eya2 binding, biochemical; stronger effect = lower value; control for the full effect not named in the record; AID 651725; in the data active = activity change below about -65%; inconclusive = about -30% to -65%; inactive = above about -30%; further: on the % scale 0 is the no-effect control and ±100 the full control effect
Target sequence (O00167 whole entry, looked up): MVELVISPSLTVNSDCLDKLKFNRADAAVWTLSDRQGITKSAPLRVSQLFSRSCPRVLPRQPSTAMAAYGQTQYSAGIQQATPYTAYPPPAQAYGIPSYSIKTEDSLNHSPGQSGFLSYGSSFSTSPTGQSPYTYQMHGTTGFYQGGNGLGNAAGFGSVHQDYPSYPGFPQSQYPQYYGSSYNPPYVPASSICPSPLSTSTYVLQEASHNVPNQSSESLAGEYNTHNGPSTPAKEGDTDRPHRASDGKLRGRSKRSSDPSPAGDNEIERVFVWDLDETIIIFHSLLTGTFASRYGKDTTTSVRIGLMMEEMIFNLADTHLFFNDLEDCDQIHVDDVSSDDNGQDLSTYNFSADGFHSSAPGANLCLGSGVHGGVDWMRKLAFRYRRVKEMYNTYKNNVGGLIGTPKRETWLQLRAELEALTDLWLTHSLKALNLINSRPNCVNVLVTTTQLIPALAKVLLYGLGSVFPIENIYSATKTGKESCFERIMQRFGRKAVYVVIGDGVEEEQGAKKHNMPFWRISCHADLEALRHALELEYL
Target sequence (Q15475 whole entry, looked up): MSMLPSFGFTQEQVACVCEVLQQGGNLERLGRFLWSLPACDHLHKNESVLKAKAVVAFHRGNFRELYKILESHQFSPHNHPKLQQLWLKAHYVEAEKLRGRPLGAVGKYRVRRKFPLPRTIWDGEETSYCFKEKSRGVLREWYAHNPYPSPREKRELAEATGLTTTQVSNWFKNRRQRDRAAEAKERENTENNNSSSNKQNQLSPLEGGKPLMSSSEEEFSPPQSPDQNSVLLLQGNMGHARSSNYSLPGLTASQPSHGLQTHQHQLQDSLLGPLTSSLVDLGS
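AlphaScreen with GST-Six1 and His-Eya2 (5X mix: 250 nM and 500 nM), glutathione donor and nickel acceptor beads; buffer 50 mM Tris pH 8.0, 300 mM NaCl, 1 mM TCEP; 1 h at 37 C in the dark.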
CtBP-E1A blk: CtBP/E1A binding inhibition. AlphaScreen GST-E1A/His-CtBP binding, 1536-well; stronger effect = lower value; control for the full effect not named in the record. activity change, % (test concentration not listed). 0.49% of 340,000 active. AID 651724; in the data active means activity change below about -65%; inconclusive means about -30% to -65%; inactive means above about -30%; further: on the % scale 0 is the no-effect control and ±100 the full control effect; compound concentration not given in the record
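AlphaScreen with 125 nM GST-E1A and 125 nM His-CtBP (5X stocks) in Tris pH 8.0, 300 mM NaCl, BSA, Tween 20, TCEP. Compounds preincubated 2 h at 37 deg C, then glutathione donor/nickel acceptor beads added for 1 h at 37 deg C in dark.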
D2 agonist: activates the human D2 dopamine receptor | P14416 | DiscoveRx PathHunter D2 beta-arrestin, luminescence, 90 min; 100% = 57 uM dopamine signal | activation, % (concentration not given with the values) | 0.084% of 360,000 active | AID 624465; in the data active = activation above about 40%; inconclusive = about 15% to 40%; inactive = below about 15%; further: compound concentration not given in the record; the text of the record calls up to 30% inactive
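Agonist mode: compounds alone added to overnight-plated D2 PathHunter cells for 90 min at 37 C, with 57 uM final dopamine (EC100) defining full response. Beta-arrestin recruitment detected by chemiluminescent reagent, read after 1 h at ambient temperature.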
D2 potentiator: human D2 receptor positive allosteric modulation; 0.23% of 360,000 active; potentiation, % (test concentration not listed); DiscoveRx D2 beta-arrestin cells, luminescence, 90 min; 100% = 57 uM dopamine signal; active = potentiation of 50% or more; inconclusive = 30% to 50%; inactive = 30% or less;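 further: compound concentration not given in the record; tested on top of an EC20 dose of dopamine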
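PathHunter D2 cells, attached overnight at 37 deg C, received compound in DMSO plus dopamine at EC20 (50 nM final) for 90 min at 37 deg C. Beta-arrestin recruitment was read as luminescence after 1 h with detection reagent at ambient temperature.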
TRPV1 PAM: enhances activation of the human vanilloid receptor TRPV1 | TRPV1-expressing cells, Fluo-8 calcium influx, capsaicin EC20 potentiation; host cell line not named in the record; control for the full effect not named in the record | Q8NER1 | 0.02% of 320,000 active | potentiation, % at 8.33 µM | AID 540277; active means potentiation above 80%; inconclusive means 30% to 80%; inactive means below 30%; further: 0% is about no effect
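Cells expressing TRPV1 were dye-loaded with Fluo-8 and read kinetically: 10 s baseline, 3 min after compound (agonist portion), then 2 min after EC20 capsaicin (allosteric enhancer portion). Calcium-bound dye fluorescence at 480/520 nm.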
The depositor's hits bear a star; [ ] = another dose, or the depositor's remark.

`CCCNC(=O)CN1C(=O)COc2ccc(S(=O)(=O)N3CC(C)CC(C)C3)cc21` (stereo not drawn) gave Sfp inh 14%, PINK1 modulator 4.2%, Six1-Eya2 blk 0, CtBP-E1A blk 8, D2 agonist 7.4, D2 potentiator -4 and TRPV1 PAM 9.
Screening Fc1ccc(CSc2nnc(-c3cccs3)o2)cc1 returned Sfp inh -24%, Six1-Eya2 blk 24, CtBP-E1A blk 10, D2 agonist 0.7, D2 potentiator 4 and TRPV1 PAM 8.
`CCS(=O)(=O)N1CCC(C(=O)NCCc2ccc(C)cc2)CC1` gave Sfp inh 11%, Six1-Eya2 blk -1, CtBP-E1A blk 11, D2 agonist -3.2, D2 potentiator -3 and TRPV1 PAM -20.
For NC(Cc1c[nH]c2ccc(OCc3ccccc3)cc12)C(=O)O (stereo not drawn) the results were Sfp inh -11%, PINK1 modulator 6.1%, Six1-Eya2 blk -14, CtBP-E1A blk 0, D2 agonist -0.7, D2 potentiator 2 and TRPV1 PAM 13.
Cc1cccc(OCCCC(=O)O)c1 was read as Sfp inh 27%, PINK1 modulator -2.8%, Six1-Eya2 blk -5, CtBP-E1A blk -3, D2 agonist -0.6, D2 potentiator -2 and TRPV1 PAM -1.
Screening CCOC(=O)c1sc2nc(CC(=O)OC)nc(NCc3ccco3)c2c1C returned Sfp inh -15%, PINK1 modulator 7.7%, Six1-Eya2 blk -29, CtBP-E1A blk -11, D2 agonist 1.6, D2 potentiator 29 and TRPV1 PAM 3.
For CN1CCN(/C(=N\O)c2nonc2N)CC1 the results were Sfp inh 5%, PINK1 modulator -2.3%, Six1-Eya2 blk 6, CtBP-E1A blk 5, D2 agonist -2.8, D2 potentiator -35 and TRPV1 PAM 27.
Screening CCN(CC)S(=O)(=O)c1cc(NS(=O)(=O)c2ccc(Cl)c(C(=O)O)c2)ccc1C returned Sfp inh 14%, PINK1 modulator 0.7%, Six1-Eya2 blk -5, CtBP-E1A blk 6, D2 agonist -1.0, D2 potentiator -1 and TRPV1 PAM -5.
Cc1cccc(N(CC(=O)NC2CCCC2)C(=O)CNC(=O)c2ccco2)c1C was read as Sfp inh 9%, PINK1 modulator 0.0%, Six1-Eya2 blk -4, CtBP-E1A blk 6, D2 agonist 5.1, D2 potentiator -4 and TRPV1 PAM 19.
Screening CCOc1ccc(CCN2C(=S)N([C@@H](Cc3ccc(O)cc3)CN3CCC[C@@H]3CN3C(=S)NC[C@@H]3Cc3ccc(O)cc3)C[C@@H]2Cc2ccc(O)cc2)cc1 returned PINK1 modulator -1.1%, Six1-Eya2 blk -2 and CtBP-E1A blk 4.

Three compounds out of the list, ordered by SMILES length, rising.
Screening Fc1ccc(CSc2nnc(-c3cccs3)o2)cc1 returned Sfp inh -24%, Six1-Eya2 blk 24, CtBP-E1A blk 10, D2 agonist 0.7, D2 potentiator 4 and TRPV1 PAM 8.
Cc1cccc(N(CC(=O)NC2CCCC2)C(=O)CNC(=O)c2ccco2)c1C was read as Sfp inh 9%, PINK1 modulator 0.0%, Six1-Eya2 blk -4, CtBP-E1A blk 6, D2 agonist 5.1, D2 potentiator -4 and TRPV1 PAM 19.
Screening CCN(CC)S(=O)(=O)c1cc(NS(=O)(=O)c2ccc(Cl)c(C(=O)O)c2)ccc1C returned Sfp inh 14%, PINK1 modulator 0.7%, Six1-Eya2 blk -5, CtBP-E1A blk 6, D2 agonist -1.0, D2 potentiator -1 and TRPV1 PAM -5.

Following part.
COC(=O)c1c(-c2ccccc2)csc1NC(=O)C1CC=CCC1C(=O)O (stereo not drawn) was read as Sfp inh -6%, PINK1 modulator 0.3%, Six1-Eya2 blk 6, CtBP-E1A blk 0, D2 agonist -5.7, D2 potentiator 7 and TRPV1 PAM 3.
`O=C1CCCC(c2ccccc2)N1` (stereo not drawn) gave Sfp inh -5%, PINK1 modulator -0.5%, Six1-Eya2 blk 5, CtBP-E1A blk -20, D2 agonist -4.2, D2 potentiator -9 and TRPV1 PAM 4.
Screening CCOC(=O)C1CCCN(CC(=O)Nc2cc(C)cc(C)c2)C1 (stereo not drawn) returned Sfp inh -2%, PINK1 modulator -0.1%, Six1-Eya2 blk -1, CtBP-E1A blk 8, D2 agonist -1.1, D2 potentiator -4 and TRPV1 PAM -7.
COC(=O)C1=C(C)NC2=C(C(=O)c3ccccc32)C1c1ccc(-c2ccc(C(=O)O)cc2)o1 (stereo not drawn) was read as Sfp inh 14µM*, PINK1 modulator -1.3%, Six1-Eya2 blk inconclusive, CtBP-E1A blk inconclusive, D2 agonist -6.6, D2 potentiator -8 and TRPV1 PAM -2.
CCn1cc(S(=O)(=O)CC(=O)Nc2ccc3c(c2)OCO3)c2ccccc21 was read as Sfp inh -15%, PINK1 modulator 2.1%, Six1-Eya2 blk -1, CtBP-E1A blk 0, D2 agonist 0.1, D2 potentiator -8 and TRPV1 PAM -2.
CCOc1cc(N2CCOCC2)c(OCC)cc1NC(=O)c1cccc(S(=O)(=O)N2CC(C)OC(C)C2)c1 (stereo not drawn) was read as PINK1 modulator 1.6%, Six1-Eya2 blk 0, CtBP-E1A blk -1, D2 agonist -1.7 and D2 potentiator -5.
`CCN(CC)S(=O)(=O)c1ccc2[nH]c(=O)cc(C(=O)Nc3cccc(C(C)=O)c3)c2c1` gave Sfp inh 15%, PINK1 modulator 1.2%, Six1-Eya2 blk 0, D2 agonist -3.4, D2 potentiator 2 and TRPV1 PAM 6.
For CCCN(CCC)CCNC(=O)C1CCCN(S(=O)(=O)c2ccc3c(c2)oc(=O)n3C)C1 (stereo not drawn) the results were Sfp inh -9%, PINK1 modulator 0.9%[38.3 µM], Six1-Eya2 blk 2, CtBP-E1A blk 0, D2 agonist -0.2, D2 potentiator 2 and TRPV1 PAM 10.
Screening CCNC(=O)CC1SC(=Nc2ccc(C)cc2)N(CC)C1=O (stereo not drawn) returned Sfp inh 6%, PINK1 modulator -0.6%, Six1-Eya2 blk 0, CtBP-E1A blk -1, D2 agonist -3.3, D2 potentiator 2 and TRPV1 PAM -45.
Screening COc1cccc(OCc2cc(C(=O)N(C)CCOc3ccc(C)cc3)no2)c1 returned Sfp inh 5%, PINK1 modulator -0.6%, Six1-Eya2 blk 15, CtBP-E1A blk 33, D2 agonist -1.0, D2 potentiator -26 and TRPV1 PAM 20.
For O=C(c1ccccc1Cl)N1CCC(n2cccc2)CC1 the results were Sfp inh 1%, PINK1 modulator 3.6%, Six1-Eya2 blk -1, CtBP-E1A blk 0, D2 agonist -4.9, D2 potentiator -2 and TRPV1 PAM 3.
`COCCn1c(SCC(=O)Nc2ccccc2OC)nc2ccccc2c1=O` gave Sfp inh 5%, PINK1 modulator 1.3%, Six1-Eya2 blk 1, CtBP-E1A blk -1, D2 agonist -4.0, D2 potentiator -1 and TRPV1 PAM 8.
CCc1c(O)cc2n(c1=O)-c1ccc(Cl)cc1C2(C)C was read as Sfp inh 23%, PINK1 modulator -0.7%, Six1-Eya2 blk -1, CtBP-E1A blk -2, D2 agonist 1.8, D2 potentiator -28 and TRPV1 PAM 13.
`O=C(NCc1ccncc1)c1cccc(Cn2cc(Br)cn2)c1` gave Sfp inh -10%, PINK1 modulator 0.8%, Six1-Eya2 blk -7, CtBP-E1A blk -3, D2 agonist -5.1, D2 potentiator -12 and TRPV1 PAM -11.
CCCn1c(SCC(=O)Nc2ccc(Cl)cc2F)nc(O)cc1=O was read as PINK1 modulator 0.8%, Six1-Eya2 blk 3, CtBP-E1A blk 4, D2 agonist 1.2 and D2 potentiator 2.
`COc1cccc(N(C(=O)Cn2nnc(-c3ccc(C)o3)n2)C(C(=O)NC2CCCC2)c2ccncc2)c1` (stereo not drawn) gave Sfp inh 8%, PINK1 modulator 3.5%, Six1-Eya2 blk 10, CtBP-E1A blk 1, D2 agonist -0.5, D2 potentiator -2 and TRPV1 PAM -4.
For Cc1nnc(SCC(=O)Nc2cc(Cl)ccc2Cl)n1CC1CCCO1 (stereo not drawn) the results were Sfp inh 14%, PINK1 modulator 2.3%, Six1-Eya2 blk 1, CtBP-E1A blk 12, D2 agonist -5.5, D2 potentiator -3 and TRPV1 PAM -8.
COC(=O)C1=C(C)N(Cc2ccccc2)C(=NCC(C)C)N[C@H]1c1cccc(C(F)(F)F)c1 was read as PINK1 modulator -2.2%, Six1-Eya2 blk 1, CtBP-E1A blk 0, D2 agonist -3.8 and D2 potentiator -18.
Screening Cc1ccc(O)c(-c2cc(-c3ccccc3F)[nH]n2)c1 returned Sfp inh 14%, PINK1 modulator 3.1%, Six1-Eya2 blk -5, CtBP-E1A blk 0, D2 agonist -2.7, D2 potentiator -5 and TRPV1 PAM -4.
CC(C)N(C)S(=O)(=O)c1ccc(NC(=O)CSC(=S)N2CCCC2)cc1 was read as PINK1 modulator -0.4%, Six1-Eya2 blk 0, CtBP-E1A blk 2, D2 agonist 2.2, D2 potentiator 10 and TRPV1 PAM 2.
Screening CCOc1ccc(/C=N/OCC(=O)Nc2cc(C)on2)cc1 returned Sfp inh 6%, PINK1 modulator 1.5%, Six1-Eya2 blk -8, CtBP-E1A blk -25, D2 agonist -1.7, D2 potentiator -3 and TRPV1 PAM -24.
`O=C(CSc1ncn[nH]1)N1N=C2/C(=C\c3ccco3)CCCC2C1c1ccco1` (stereo not drawn) gave PINK1 modulator 5.4%, Six1-Eya2 blk -17, CtBP-E1A blk -12, D2 agonist -0.4 and D2 potentiator -9.
O=C(CN1C(=O)c2ccccc2S1(=O)=O)N1CCCCC1 was read as Sfp inh 14%, PINK1 modulator 4.5%, Six1-Eya2 blk 13, CtBP-E1A blk -13, D2 agonist -3.5, D2 potentiator -1 and TRPV1 PAM 3.
`COc1ccc(N(C(C)C(=O)N(C)Cc2ccccc2)S(C)(=O)=O)cc1` (stereo not drawn) gave Sfp inh 0%, PINK1 modulator 1.3%, Six1-Eya2 blk -3, D2 agonist 0.1, D2 potentiator -9 and TRPV1 PAM 3.
`O=C(NC1(C(F)(F)F)N=C2SCCN2C1=O)c1ccccc1F` (stereo not drawn) gave Sfp inh 15%, PINK1 modulator -0.1%, Six1-Eya2 blk 6, D2 agonist -4.7, D2 potentiator -16 and TRPV1 PAM 5.
COc1cc(OC)cc(C(=O)OCC(=O)Nc2cccc(S(=O)(=O)NC3=NCCCCC3)c2)c1 was read as PINK1 modulator 1.3%, Six1-Eya2 blk -3, CtBP-E1A blk 0, D2 agonist -2.6 and D2 potentiator -17.
`COc1ccccc1NS(=O)(=O)c1ccc2c(c1)NC(=O)CC(=O)N2` gave Sfp inh 10%, PINK1 modulator 1.0%, Six1-Eya2 blk 2, CtBP-E1A blk 5, D2 agonist -1.7, D2 potentiator -3 and TRPV1 PAM inconclusive.
